CSC inhib – cancer stem cell inhibition | cancer stem cell-like cells viability, luminescence | inhibition, % at 7.5 µM | actives 1.1% (n = 300,000) | AID 2717;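 active = mean at 75% or more and at least half the replicates too; inconclusive = mean and replicates disagree; tested in HMLE shEcad cells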;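 also: 0% = median of negative and 100% = median of positive control wells; the first replicate is given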
Env fusion inh – blocks HIV Env-driven cell-cell fusion; HeLa-JRFL Env/CEM21 cell fusion, luciferase; inhibition, % at 12.3 µM; actives 1.1% (n = 360,000);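 active = mean replicate inhibition score of at least 50 and every replicate individually at or above 50; inconclusive = only one of the two criteria met; inactive = mean below 50 and not all replicates reaching 50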;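 also: 0% = plate neutral controls and 100% = maraviroc near 300 nM; one replicate is shown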
eIF4H inh – inhibitors of RNA binding by human eIF4H | Q15056 | eIF4H fluorescence polarization binding assay | inhibition, % at 35 µM | actives 0.94% (n = 290,000) | AID 2012;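 active = 50% or more with normal probe brightness, or confirmed in later tests; inconclusive = above 50% with abnormal brightness, or retests that disagree; inactive = below 50% or failed in later tests; about a fifth of its hits are not listed in these tables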;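 also: calls also rest on retests at 20 µM and on dose response follow-up; 0% = protein and probe with vehicle and 100% = probe without protein; strong numbers were not always called active; many hits fall short of the cut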
Rce1 inhib – blocks yeast Ras-converting enzyme | Q03530 | yeast membranes, quenched prenylated peptide cleavage fluorescence | calls only | actives 0.27% (n = 290,000) | AID 2563;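 active = fall in fluorescence gain of 50% or more versus controls, with final raw signal at or below 3038400; inconclusive = same 50% fall but final raw signal above 3038400; inactive = fall in fluorescence gain under 50%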;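 also: plate controls were neutral control wells for no effect and wells lacking membranes for full effect; tested at 10 µM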
Target sequence (Q03530 whole entry, looked up): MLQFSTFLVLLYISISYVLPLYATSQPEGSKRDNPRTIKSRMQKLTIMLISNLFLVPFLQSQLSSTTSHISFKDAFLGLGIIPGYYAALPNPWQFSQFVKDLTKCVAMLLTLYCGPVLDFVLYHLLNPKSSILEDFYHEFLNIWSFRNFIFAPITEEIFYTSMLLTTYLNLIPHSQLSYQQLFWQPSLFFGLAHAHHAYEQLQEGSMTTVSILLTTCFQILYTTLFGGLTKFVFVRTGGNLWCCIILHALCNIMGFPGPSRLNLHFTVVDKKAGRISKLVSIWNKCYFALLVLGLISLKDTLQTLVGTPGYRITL
PABP FP inh – blocks human PABP binding to poly(A) RNA | P11940 | fluorescence polarization | inhibition, % at 35 µM | actives 1% (n = 290,000);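 active = 50% or more with normal probe brightness, or confirmed in later tests; inconclusive = above 50% with abnormal brightness, or retests that disagree; inactive = below 50% or failed in later tests; about a fifth of its hits are not listed in these tables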;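 also: calls also rest on retests at 20 µM and on dose response follow-up; controls were probe without protein and protein plus probe with vehicle; some compounds called inactive have numbers as strong as hits; many hits fall short of the cut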
MT1-MMP act inh – MT1-MMP (human) activation inhibition; HT1080 RFP-PRO-GFP cells, GFP/RFP ratio fluorescence, overnight; percent of plate control window, DMSO zero; GFP/RFP ratio change, % at 20 µM; actives 0.061% (n = 360,000); AID 651647;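 active = GFP/RFP ratio change of at least 30% with cell ATP level not reduced by more than half and red fluorescence within 50% of control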; also: strong numbers were not always called active
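Material – HT1080 RFP-PRO-GFP cells · Control set – DMSO wells and RFP-L50D-GFP cells · Incubation – overnight cell settling, then overnight compound exposure, 37 °C, 5% CO2 · Compound dosing – single-point 20 µM compound, 1% DMSO · Read-out – GFP/RFP fluorescence ratio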
Yeast UUG start – alters start codon recognition fidelity in yeast. S. cerevisiae UUG-firefly luciferase reporter, luminescence/redox ratio. activity score, % at 18.7 µM. actives 0.13% (n = 350,000). AID 602363;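 active = replicate mean at a twofold rise or more, about +100% in these data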;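 also: firefly luciferase made from a UUG start codon reports start codon fidelity; reporter light over untreated wells divided by growth signal over untreated wells; some hits fall short of that in this replicate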
eIF4H inh retest – further read-out of eIF4H inh, marked with its call; inhibition, %; compound at 20 µM; confirmation average;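 mean of two retest wells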
PABP FP inh retest – further read-out of PABP FP inh, marked with its call; inhibition, %; compound at 20 µM; confirmation repeats;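 mean of two retest wells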
MT1-MMP act inh RFP – also measured in MT1-MMP act inh; calls as there; RFP signal change, %; measured here: RFP expression control read;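 0 = vehicle wells; hits needed this value within 50% of zero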
An asterisk follows results filed as active; i = inactive; u = inconclusive; x = not tested or not shown; + = active, no number; & = joins results of further samples. A portion of the library, so the mix of outcomes need not match the whole.

SMILES | CSC inhib | Env fusion inh | eIF4H inh | Rce1 inhib | PABP FP inh | MT1-MMP act inh | MT1-MMP act inh RFP | Yeast UUG start | others
COc1ccc(CNC(=O)CN(C(=O)c2csnn2)c2ccc(C(C)=O)cc2)cc1 | -3 | 8 | -7 | i | -9 | 0 | 1 | -7
Cc1cccc(-n2cnc3c(c2=O)c2nc4ccccc4nc2n3Cc2ccco2)c1 | 41 | x | 54 | i | 30 | -2 | 3 | -9 | eIF4H inh retest=5;PABP FP inh retest=5
O=C(N/N=C/c1ccc(F)cc1)c1ccccc1 | 1 | -40 | -2 | i | -11 | 2 | 2 | x
CC(=O)c1c(C)n([O-])c2cc(F)c(F)cc2[n+]1=O | x | -80 | 1 | i | 34 | -16 | 0 | x
C/C(CC(=O)NC1C2CC3CC(C2)CC1C3)=N\NC(=O)Cc1cccs1 (centres undefined) | -10 | 26 | -1 | i | 4 | 2 | 3 | -26
O=C(NNC(=O)C1CC(c2cccnc2)=NO1)Nc1cccc(F)c1 (centres undefined) | -7 | x | 16 | i | 4 | -4 | 0 | x
CC(=O)NC(=Cc1ccccc1)C(=O)N1CCCC1C(=O)O (centres undefined) | x | 8 | x | x | x | 4 | 1 | -18
COc1cc(/C=N/NC(=O)c2sc3ccccc3c2Cl)ccc1OC(=O)c1ccc([N+](=O)[O-])cc1 | 3 | -3 | -3 | i | 0 | -4 | -5 | -23
COC(=O)c1c(Cc2ccccc2Cl)c[nH]c1C | 7 | 10 | 11 | i | 4 | 1 | -1 | -12
COc1cc(CC(=O)N2CCc3ccccc32)cc(OC)c1OC | -6 | u | 5 | i | 10 | 6 | -6 | -17
Cc1cc(C)n2nc(C(=O)OCC(=O)N3CCC3)nc2n1 | -6 | 8 | -4 | x | 34 | -2 | 2 | x
CCOc1ccc2ccccc2c1C(=O)N1CCOCC1 | 2 | x | 7 | i | 0 | 2 | 2 | -17
CN(C)c1ccc(NC(=S)NCC2CCCO2)cc1 (centres undefined) | -2 | x | 3 | i | 2 | 4 | 4 | x
COc1ccc(CCNC(=O)CSc2nncs2)cc1 | 5 | -10 | -8 | i | -6 | -1 | 2 | x
Cc1ccc(CN2CCNC(=O)C2CC(=O)NC2CCCCCC2)o1 (centres undefined) | -5 | 1 | 28 | + | 10 | 2 | 3 | -1
O=C(Nc1nc(-c2ccccc2)cs1)NC1CCCCC1 | 25 | -56 | 3 | i | -12 | 0 | -9 | 0
O=C(CCC1CCCN(C(=O)COc2ccccc2)C1)N1CCN(c2ccccn2)CC1 (centres undefined) | -11 | 5 | 0 | i | 15 | 0 | -6 | x
Cc1ccn2c(c1)nc(=S)n2C(=O)c1ccco1 | -14 | x | 1 | i | 13 | x | x | x
COc1cc2ccc(=O)oc2c(CC=C(C)C)c1OC | -4 | x | -3 | i | 8 | -1 | -1 | -14
CC(C)OCCCNC(=O)CN1C(=O)c2cccc3cccc1c23 | 1 | -31 | 3 | i | -1 | -1 | 6 | 1
COc1ccc(C(=O)/C=C2\NCC3c4ccccc4CCN3C2=O)cc1 (centres undefined) | x | -38 | -10 | i | 4 | -9 | -1 | -3
CC(O)(c1cccc(F)c1)c1nc(-c2cccc(F)c2)cs1 (centres undefined) | x | 9 | x | x | x | 0 | -4 | -5
CC(C)CC(=O)Nc1ccc(C(=O)NNC(=S)NC(=O)C2CCCCC2)cc1 | 0 | x | 15 | i | 6 | 3 | -2 | -17
CCCCNc1cc(C)nc(NCc2ccccc2)n1 | 38 | x | -4 | i | -2 | -10 | -23 | x
COc1cc(/C=C2\SC(=O)NC2=O)ccc1Oc1cnccn1 | 4 | 2 | -12 | x | -12 | 1 | -4 | x
O=C(CCl)N(CCc1ccccc1)CCc1ccccc1 | x | 11 | -5 | i | 10 | -7 | -4 | -16
O=C(NCCO)C1CCN(S(=O)(=O)c2ccc(F)cc2)CC1 | -9 | -39 | -3 | i | -3 | 1 | 4 | -15
C[C@H](NC(=O)c1ccccc1Cl)C(=O)OC(C(=O)Nc1cc(C(F)(F)F)ccc1Cl)c1ccccc1 (some centres undefined) | 4 | x | -10 | i | 4 | 1 | -4 | -15
O=C(CCC(=O)c1cccs1)NNC(=O)c1ccc(Cl)cc1 | -9 | x | x | x | x | 1 | 2 | -9
CCCn1c(SCC(=O)NCCc2ccccc2)nnc1-c1ccccn1 | 1 | -59 | -1 | i | 3 | -8 | -2 | 5
c1ccc2[nH]c(-c3ccc4c(c3)OCO4)nc2c1 | 41 | -459 | x | i | x | 4 | -2 | -40
CCC1(c2ccccc2)NC(=O)N(CC(=O)N(C)Cc2c(F)cccc2Cl)C1=O (centres undefined) | 1 | 2 | -25 | i | -8 | 3 | -1 | -4
Cc1cnc(NC(=O)c2cc3c(C)nn(-c4ccccc4)c3s2)s1 | 6 | x | -12 | i | -13 | -1 | -7 | -10
Cc1ccc(Cl)cc1N1CCN(C(=O)CN(C2CCCCC2)S(C)(=O)=O)CC1 | 6 | 25 | 6 | i | 1 | -12 | -22 | -6
COC(=O)c1ccc(COc2cc(C)ccc2C)o1 | -2 | -38 | -8 | i | -2 | -1 | 0 | -23
CC[C@H](C)[C@H](NC(=O)OCc1ccccc1)C(=O)OCC(=O)N(C)CC(=O)Nc1ccccc1Cl | 4 | 2 | x | i | x | 8 | 2 | 0
C=CCn1c(SCc2nc3ccccc3c(=O)[nH]2)nc2sc3c(c2c1=O)CCCC3 | 18 | x | 6 | i | 8 | x | x | x
CC1CC(C)CN(c2ccc([N+](=O)[O-])nc2)C1 (centres undefined) | -2 | 18 | -6 | i | -2 | 1 | -1 | x
Cc1ccc(Cn2c(SCC(C)C)nc3c2c(=O)n(C)c(=O)n3C)cc1 | -13 | -7 | 5 | x | 0 | -10 | -3 | -10
COc1ccc(N2C(=O)CC(S/C(N)=N/N=C(\C)c3cccs3)C2=O)cc1 (centres undefined) | -4 | -120 | 7 | i | -5 | 4 | 2 | -9
O=C(N1CCCCCC1)N1CCN(C(=O)N2CCOCC2)CC1 | -1 | x | -9 | i | 0 | -2 | 2 | -7
O=C(CCNC(=O)C1CCN(S(=O)(=O)c2ccc(F)cc2)CC1)NCCc1cccc(F)c1 | -10 | -2 | -8 | i | 1 | -2 | 0 | 1
O=C(O)CSc1nnc(-c2ccc(Cl)cc2Cl)n1-c1ccc(Cl)cc1 | -11 | -3 | -1 | i | 10 | -2 | 2 | -22
O=C(NCc1cccs1)c1ccc([N+](=O)[O-])cc1 | -4 | -20 | 6 | i | 9 | -1 | 2 | x
O=C1OC(NC(=O)c2ccccc2)C(n2cc(CO)nn2)=C1Cl (centres undefined) | -4 | -64 | 0 | i | 5 | -1 | 2 | -9
O=C1c2ccccc2NC(c2ccccc2)N1CCCN1CCOCC1 (centres undefined) | -6 | -79 | -1 | i | -5 | -1 | 0 | -13
COc1ccc(NC(=O)CSCC(=O)N(C)Cc2c(F)cccc2Cl)cc1 | -6 | 1 | x | i | x | 3 | 1 | -9
CC(C)OCCCNC(=O)c1ccc2c(c1)ncn2C1CCCC1 | 0 | -15 | 4 | i | 1 | 1 | 1 | -27

Reprinted from above for reference:
SMILES | CSC inhib | Env fusion inh | eIF4H inh | Rce1 inhib | PABP FP inh | MT1-MMP act inh | MT1-MMP act inh RFP | Yeast UUG start | others
O=C(N1CCCCCC1)N1CCN(C(=O)N2CCOCC2)CC1 | -1 | x | -9 | i | 0 | -2 | 2 | -7
O=C(CCNC(=O)C1CCN(S(=O)(=O)c2ccc(F)cc2)CC1)NCCc1cccc(F)c1 | -10 | -2 | -8 | i | 1 | -2 | 0 | 1

Additional structures.
SMILES | CSC inhib | Env fusion inh | eIF4H inh | Rce1 inhib | PABP FP inh | MT1-MMP act inh | MT1-MMP act inh RFP | Yeast UUG start | others
O=C(CCc1ccccc1)Nc1ccc(NC(=O)C2CCCCC2)nc1 | 1 | 6 | 11 | x | 1 | -1 | -4 | x
CCSCc1nnc(SCC(=O)Nc2nccs2)n1CC | 8 | -7 | 1 | i | 0 | 0 | -1 | x
Cc1ccc(N(C(=O)c2ccc3c(c2)OCO3)C2C=CS(=O)(=O)C2)cc1C (centres undefined) | -6 | -97 | 0 | i | 1 | -1 | 1 | 3
O=C(/C=C/c1ccccc1)Nn1cnnc1 | -6 | -7 | -2 | i | -6 | 1 | 5 | x
O=C(Nc1ccc2c(c1)[C@@H]1C[C@@H](CC(=O)N3CCOCC3)O[C@@H](CO)[C@@H]1O2)NC1CCCC1 | x | 18 | x | x | x | 0 | 4 | -13&2
O=C(CSc1nnnn1-c1ccc(F)cc1)NC1CCCCC1 | -12 | -20 | -7 | i | -5 | -1 | 2 | -2
N#C/C(=C(/O)COC(=O)c1ccccc1O)c1nc2ccccc2s1 | 40 | 9 | 56 | i | 20* | -8 | 1 | x | eIF4H inh retest=-12;PABP FP inh retest=98*
O=C(c1ccc(=O)[nH]n1)N1CCN(S(=O)(=O)c2ccccc2F)CC1 | -8 | 32 | x | x | x | 2 | -6 | -12
O=C(NCc1ccc(Cl)c(Cl)c1)c1cc(C2CCCCN2C(=O)CCc2ccccc2)on1 (centres undefined) | x | 25 | x | x | x | -10 | -18 | -15
CCCN1CCN(CCCNC(=O)c2ccc(CS(=O)c3ccccc3C)o2)CC1 (centres undefined) | -1 | 8 | -2 | i | -10 | 1 | 4 | -23
COc1ccc(-c2nc(CSCC(=O)NCC3CCCO3)c(C)o2)cc1OC (centres undefined) | -10 | 14 | -3 | i | -7 | 0 | 2 | -22
Cc1cccc(N2CC(C(=O)Nc3nnc(SCC(=O)N4CCOCC4)s3)CC2=O)c1 (centres undefined) | -9 | -17 | 35 | i | 9 | -3 | 4 | -3
CCOC(=O)C/C(C)=N/NC(=O)CNc1cccc(Cl)c1C | -11 | -16 | -10 | i | -7 | 4 | 1 | x
COc1ccc(C2C(C(=O)Nc3cccc(C)n3)c3ccccc3C(=O)N2C)cc1 (centres undefined) | -14 | -8 | -6 | i | -4 | -8 | -6 | -23
Cc1ccc(C(=O)C2=C(O)C(=O)N(Cc3cccnc3)C2c2cccc(Oc3ccccc3)c2)o1 (centres undefined) | -17 | -7 | -1 | i | 13 | x | x | x
CCn1cc(CN2CCC(n3nccc3NC(=O)CCOc3ccccc3)CC2)c(C)n1 | x | -5 | 0 | i | 2 | 3 | 5 | -17
CCn1c(-c2cccn(Cc3ccc(Cl)cc3Cl)c2=O)n[nH]c1=S | 1 | 19 | -6 | i | 12 | 0 | -5 | -5
O=C(NC(=S)Nc1cc(Cl)ccc1Cl)c1ccco1 | x | -12 | x | x | x | 0 | 0 | -21
Cc1ccc(-c2csc(NC(=O)COc3ccc(N(C)S(=O)(=O)c4ccc(C)cc4)cc3)n2)cc1 | -8 | 40 | -7 | i | 2 | -13 | -20 | x
CCN(CC(=O)Nc1ccc(NC(C)=O)cc1)C(=O)/C=C/c1ccc([N+](=O)[O-])cc1 | -12 | -7 | x | i | x | 1 | 1 | x
Cc1ccc(NC(=O)CN(C)C(=O)COC(=O)COc2cc(C)cc(C)c2)cc1 | x | -6 | x | x | x | 2 | 1 | -12
O=C(Cc1cccc(NC(=O)C2CCN(C(=O)C3CC3)CC2)c1)Nc1cccc(C(=O)N2CCCC2)c1 | -18 | -34 | x | x | x | 4 | 7 | -9
O=C(CCCNC(=O)c1ccc(Cl)cc1)NCc1ccccc1Cl | 5 | 15 | -12 | i | -1 | -1 | -2 | -26

Source: PubChem BioAssay (several laboratories)
